Source: PubChem (several laboratories)
Rce1 inh: yeast Rce1p protease inhibitors, primary screen, biochemical, fluorescence, cell-free homogeneous; CAAX prenyl protease 2 (Saccharomyces cerevisiae (strain ATCC 204508 / S288c)), Q03530; yeast membranes, quenched prenylated peptide cleavage fluorescence; calls only; hit rate 0.27% among 290,000; AID 2563, 2010;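 active = fall in fluorescence gain of 50% or more versus controls, with final raw signal at or below 3038400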;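 note: plate controls were neutral control wells for no effect and wells lacking membranes for full effect; tested at 10 µM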
Target sequence (Q03530 whole entry, looked up): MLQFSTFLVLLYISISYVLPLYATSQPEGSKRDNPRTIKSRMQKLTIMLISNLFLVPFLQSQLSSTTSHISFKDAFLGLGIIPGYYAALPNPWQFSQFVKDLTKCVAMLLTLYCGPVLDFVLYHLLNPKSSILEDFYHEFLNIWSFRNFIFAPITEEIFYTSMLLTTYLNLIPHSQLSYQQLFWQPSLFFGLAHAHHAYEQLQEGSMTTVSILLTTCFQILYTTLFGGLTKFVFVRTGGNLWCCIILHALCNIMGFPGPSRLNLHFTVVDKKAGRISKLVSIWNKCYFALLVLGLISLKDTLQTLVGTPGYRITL
MT1-MMP act inh: blockers of MT1-MMP proenzyme processing, primary screen, HT1080 RFP-PRO-GFP cells, GFP/RFP fluorescence; Matrix metalloproteinase-14 (Homo sapiens), P50281; GFP/RFP ratio fluorescence, overnight; percent of plate control window, DMSO zero; GFP/RFP ratio change, % at 20 µM; hit rate 0.061% among 360,000;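 active = GFP/RFP ratio change of at least 30% with cell ATP level not reduced by more than half and red fluorescence within 50% of control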; note: strong numbers were not always called active
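Read-out: GFP/RFP fluorescence ratio; Test system: RFP-PRO-GFP reporter HT1080 cells; Compound dosing: single-point 20 µM compound, 1% DMSO; Times: overnight compound exposure at 37 °C.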
HIV Env fusion: inhibitors of HIV-1 Env-driven cell-cell fusion, primary screen, HeLa-JRFL effector, CEM21 target cells, luciferase; inhibition, % at 12.3 µM; AID 651610, 2012; hit rate 1.1% among 360,000;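 active = mean replicate inhibition score of at least 50 and every replicate individually at or above 50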;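 note: 0% = plate neutral controls and 100% = maraviroc near 300 nM; one replicate is shown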
Yeast UUG start: modulators of yeast start codon fidelity, primary screen, whole organism, S. cerevisiae, single point, plate reader. S. cerevisiae UUG-firefly luciferase reporter, luminescence/redox ratio. activity score, % at 18.7 µM. hit rate 0.13% among 350,000. AID 602363, 2012;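 active = replicate mean at a twofold rise or more, about +100% in these data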;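 note: firefly luciferase made from a UUG start codon reports start codon fidelity; reporter light over untreated wells divided by growth signal over untreated wells; some hits fall short of that in this replicate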
eIF4H FP inh: human eIF4H binding inhibitors, primary screen, translation initiation inhibitor project, biochemical, uHTS, fluorescence polarization | Eukaryotic translation initiation factor 4H (Homo sapiens), Q15056 | eIF4H fluorescence polarization binding assay | inhibition, % at 35 µM | hit rate 0.94% among 290,000 | AID 2012, 2009;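 active = 50% or more with normal probe brightness, or confirmed in later tests; about a fifth of its hits are not listed in these tables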;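 note: calls also rest on retests at 20 µM and on dose response follow-up; 0% = protein and probe with vehicle and 100% = probe without protein; strong numbers were not always called active; many hits fall short of the cut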
CSC inhib: cancer stem cell viability inhibitors, primary screen, luminescence; cancer stem cell-like cells viability; inhibition, % at 7.5 µM; hit rate 1.1% among 300,000; AID 2717, 2010;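 active = mean at 75% or more and at least half the replicates too; tested in HMLE shEcad cells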;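 note: 0% = median of negative and 100% = median of positive control wells; the first replicate is given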
PABP polyA inh: PABP poly(A) RNA binding inhibitors, primary screen, biochemical, fluorescence polarization, uHTS; Polyadenylate-binding protein 1 (Homo sapiens), P11940; inhibition, % at 35 µM; hit rate 1% among 290,000; AID 2014, 2009;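 active = 50% or more with normal probe brightness, or confirmed in later tests; about a fifth of its hits are not listed in these tables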;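 note: calls also rest on retests at 20 µM and on dose response follow-up; controls were probe without protein and protein plus probe with vehicle; some compounds called inactive have numbers as strong as hits; many hits fall short of the cut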
eIF4H FP inh retest: second read-out of eIF4H FP inh, no call of its own (marks repeat the call); inhibition, %; compound at 20 µM; confirmation average;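 mean of two retest wells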
PABP polyA inh retest: second read-out of PABP polyA inh, no call of its own (marks repeat the call); inhibition, %; compound at 20 µM; confirmation repeats;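 mean of two retest wells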
MT1-MMP act inh RFP: recorded beside MT1-MMP act inh, whose call it bears; RFP signal change, %; measured here: RFP expression control read;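 0 = vehicle wells; hits needed this value within 50% of zero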
* marks the source's active call; other numbers are inactive results; i = inactive; / = no result given; & = joins results of further samples.

SMILES | Rce1 inh | MT1-MMP act inh | MT1-MMP act inh RFP | HIV Env fusion | Yeast UUG start | eIF4H FP inh | CSC inhib | PABP polyA inh | others
CCN(CC)CCNC(=O)c1ccc(Cl)c(S(=O)(=O)Nc2ccc(Cl)cc2)c1 | i | 2&2 | -1&1 | 0 | -11&-20 | 6 | 5 | 6
CCN(CC)C(=O)C1CCN(S(=O)(=O)c2cccc3nonc23)CC1 | i | -3 | 3 | -69 | -19 | 6 | -2 | 7
CCOc1cc(NC(=S)NCc2ccco2)c(OCC)cc1NC(=O)c1ccco1 | i | 0 | 1 | 15 | -23 | 1 | -5 | 4
Cc1nn(C)c(C(=O)NNC(=O)NC2CCCCC2)c1Cl | i | 0 | -2 | 17 | -9 | -4 | / | -9
CCOCCCn1c(SCc2nc3sc(C(=O)O)c(C)c3c(=O)[nH]2)nnc1-c1ccc(Cl)cc1 | i | -2 | 3 | 18 | -6 | -6 | 1 | 7
Cc1ccc(SCc2ccc(C(=O)Nc3cccc([N+](=O)[O-])c3C)cc2)cc1 | i | -3 | -5 | / | -8 | -1 | 16 | 0
COc1ccc(-n2nc3c(c2NC(=O)COc2ccccc2)CS(=O)(=O)C3)cc1 | i | 0 | 1 | -7 | -13 | 0 | -16 | -1
COc1ccc(NC(=O)c2ccco2)cc1NC(=O)c1c(F)c(F)c(OC)c(F)c1F | i | 3 | 4 | / | 3 | -2 | -3 | -8
CCOc1cc(C2C3=C(CC(C)(C)CC3=O)N(C)C3=C2C(=O)CC(C)(C)C3)ccc1O | i | -4 | -4 | -5 | -2 | 2 | -28 | 1
COc1ccc(OCC(O)CNC(C)c2ccccc2)cc1 (configuration not stated) | i | 1 | 0 | 3 | -8 | 2 | 5 | 1
O=S(=O)(Cc1ccc(Cl)cc1)c1ccccc1-c1nnc(-c2ccccc2)o1 | i | 4 | 3 | / | / | 0 | -2 | -3
Cc1nn(C(C)C(=O)O)c(=O)c2c1sc1ccccc12 (configuration not stated) | i | -4 | 3 | -78 | -6 | -2 | -1 | -7
COc1ccc(Cl)cc1C(=O)N1CCN(Cc2ccc3c(c2)OCO3)CC1 | i | -4 | -5 | 10 | -15 | 41 | -16 | -1
O=C(O)c1ccc(Oc2ccc(S(=O)(=O)c3ccc(C(=O)O)c(C(=O)O)c3)cc2)cc1 | i | 2 | 0 | 1 | -9 | 6 | 1 | 18
Cc1ccc(NC(=O)CN2C(=O)S/C(=C\c3cccn3C)C2=O)cc1 | i | 3 | -2 | / | -14 | -5 | -8 | -2
COc1ccc(NS(=O)(=O)c2ccc(NS(=O)(=O)c3ccc(SC)cc3)cc2)c(OC)c1 | i | -4 | -4 | -3 | 12 | -5 | 8 | -9
COc1ccc(C(C)=O)cc1COC(=O)CSC(C)C(=O)Nc1cc(C)on1 (configuration not stated) | i | 1 | 3 | / | / | / | -13 | /
Cc1cc(C)cc(NS(=O)(=O)c2cnc(Cl)c(Cl)c2)c1 | i | -1 | -3 | / | 4 | 4 | 1 | -4
CCOC(=S)NC(=O)c1sc2ccccc2c1Cl | i | 4 | 2 | -58 | -17 | -6 | -4 | 5
Cc1ccc(-c2n[nH]c(=S)n2/N=C/c2ccncc2)cc1 | i | -21 | -15 | 39 | / | 3 | -12 | -7
O=C(CCC(=O)N1CCCCCC1)Nc1ccc([N+](=O)[O-])cc1 | i | 2 | -9 | 4 | -5 | -2 | 1 | 11
CC(C)(C)c1ccc(/C=C2\SC(=O)N=C2N)cc1 | i | 0 | -3 | -26 | -10 | -9 | / | -21
CCOc1ccc(N(CC(=O)NCCSCc2ccccc2)S(=O)(=O)c2ccccc2)cc1 | i | 0 | -6 | 43 | 4 | -19 | 7 | -6
CC1CCc2sc(C(=O)OCC(=O)NCc3ccc(F)cc3)cc2C1 (configuration not stated) | i | -2 | -1 | -30 | / | -4 | 23 | -2
COc1ccc(-c2sc3cc4c(cc3c2C#CC2(O)CCCCC2)OCO4)cc1 | / | 11 | 0 | -32 | 4 | / | 112* | /
SMILES | Rce1 inh | MT1-MMP act inh | MT1-MMP act inh RFP | HIV Env fusion | Yeast UUG start | eIF4H FP inh | CSC inhib | PABP polyA inh | others
Cc1ccc2oc(=O)c(/C=C(\O)CC(C)C)nc2c1 | i | 0 | -6 | -14 | -6 | 15 | 0 | -4
Cc1[nH]c(=S)c(C#N)c(C)c1Cc1ccc(Cl)cc1Cl | i | 2 | 0 | 18 | -6 | 1 | -7 | 3
Cc1c(Cl)cccc1NC(=O)C(=O)NNC(=O)c1ccccc1F | i | 10 | 11 | 0 | -15 | 7 | 25 | 6
O=C(NCc1ccccn1)Nc1ccc(Cl)cc1Cl | i | 4 | 1 | 3 | -29 | -5 | 1 | -3
COc1cc(C2c3c(c(C)c(C)oc3=O)Oc3c(C)c(C)oc(=O)c32)ccc1OS(=O)(=O)c1ccc(C)cc1 | / | -5 | -6 | 20 | -16 | / | 7 | /
Cc1c(Cl)cccc1NC(=O)Cn1c(-c2ccc(F)cc2)noc1=O | i | -5 | -3 | -8 | / | -2 | 13 | -6
O=S(=O)(NCc1cccs1)c1cccc2cccnc12 | i | -1 | -1 | / | -6 | -3 | -19 | -4
COc1ccc(OCCSc2nnc(-c3ccccc3)n2N)cc1 | / | 6 | 2 | / | -16 | -2 | -12 | 9
COCCNC(=O)CSc1nnc(NC(=O)C2CC(=O)N(c3ccccc3OC)C2)s1 (configuration not stated) | i | 1 | 6 | -24 | -4 | 13 | -9 | 12
COc1ccc(C(=O)NCC(=O)OCc2csc(-c3ccccc3)n2)cc1 | i | -3 | -1 | / | / | -8 | -14 | -10
Cc1ccc(CSc2nnc(-c3ccncc3)n2C)cc1 | i | 1 | 6 | -6 | / | -11 | 7 | 4
CC(C)C(c1nnnn1Cc1ccc(F)cc1)N1CCN(C2CCCC2)CC1 (configuration not stated) | i | -4 | 0 | 37 | -8 | -16 | -8 | -7
CCN(CC)C(=O)c1c[nH]c2ccc(S(=O)(=O)Nc3cc(C)cc(C)c3)cc2c1=O | / | 0 | 0 | -54 | 0 | -1 | -5 | -4
COc1ccc(NC2C=CS(=O)(=O)C2)c(OC)c1 (configuration not stated) | i | -5 | 6 | / | -13 | 12 | -6 | 14
Cc1cc([N+](=O)[O-])ccc1NC(=O)CCC(=O)N1CCCCC1 | i | -6 | 7 | -6 | -20 | -12 | -7 | -3
C=C(C)CSc1nc2sc3c(c2c(=O)n1-c1ccccc1)CCN(C)C3 | i | -2 | 0 | 14 | / | 2 | -4 | 7
CC(=O)c1ccc(NC(=S)NC(NC(=O)c2ccco2)C(Cl)(Cl)Cl)cc1 (configuration not stated) | i | 3 | 0 | / | -7 | -1 | -8 | 5
CN(CCc1ccccc1)C(=O)c1cccc(NC(=O)Cc2cccc(NC(=O)C3CCCN(C(=O)C4CCCCC4)C3)c2)c1 (configuration not stated) | / | 0 | -15 | -15 | -5 | / | / | /
CC(C)(C)C1CCC(=NNC(=O)c2cc3c(s2)CCCC3)CC1 (configuration not stated) | i | 0 | -1 | 7 | -11 | -3 | -11 | 2
CSc1ccc(C(=O)C2CCCN(S(=O)(=O)N(C)C)C2)cc1 (configuration not stated) | i | 0 | -2 | 6 | / | -8 | / | -6
CCN(c1ccc(Cl)cc1)S(=O)(=O)c1nnc(NC(=O)C(C)C)s1 | i | 6 | -5 | 6 | -8 | -6 | 11 | -3
C[C@H](NC(=O)c1ccco1)C(=O)NC1CCCCCC1 | / | -3 | -3 | / | -4 | / | -8 | /
CCOc1ccccc1-c1cnc(NC)cn1 | / | 1 | 6 | -37 | -12 | / | / | /
Cc1cccc(C(=O)O/N=C/c2ccc(Br)cc2)c1 | i | 2 | 3 | -40 | / | -5 | -11 | -17
CN1CCCN(C(=O)CNC(=O)c2ccccc2F)CC1 | / | -1 | 3 | / | 3 | / | -18 | /
SMILES | Rce1 inh | MT1-MMP act inh | MT1-MMP act inh RFP | HIV Env fusion | Yeast UUG start | eIF4H FP inh | CSC inhib | PABP polyA inh | others
Cc1ccc(S(=O)(=O)N2CC(O)CC2C(=O)NCc2ccc3c(c2)OCO3)cc1 (configuration not stated) | i | -2 | 0 | -29 | -8 | 7 | / | -1
Cc1ccc(-c2noc(C3CCCN(C(=O)c4ccccc4Br)C3)n2)o1 (configuration not stated) | i | -6 | -2 | -24 | -6 | 69 | -3 | -6 | eIF4H FP inh retest=-3;PABP polyA inh retest=4
CCOc1cccc(C(=O)Nc2cnn(Cc3ccccc3)c2)c1 | i | 7 | 3 | / | -8 | 6 | / | 10
CC(=O)C1=C(C)NC(SCc2ccc(C#N)cc2)=C(C#N)C1c1ccco1 (configuration not stated) | / | 3 | 0 | 26 | / | 72 | -2 | -6 | eIF4H FP inh retest=42;PABP polyA inh retest=28
OC1C(O)C(O)C(O)C(O)C1O (configuration not stated) | i | 1&-3&1 | 4&-4&7 | -18&-10 | 6&-20&-30 | / | -10&1&2 | /
CC(C)C(c1nnnn1C(C)(C)C)N1CCN(Cc2cccnc2)CC1 (configuration not stated) | i | -1 | 2 | 14 | -21 | -18 | 1 | 3
O=C(CN(Cc1ccco1)C(=O)c1ccccc1F)Nc1ccccc1C(F)(F)F | / | -5 | 0 | 8 | -3 | / | / | /
Nc1ccc(C(=O)Nc2ccc(OC(F)(F)C(F)F)c(NC(=O)c3ccc(N)cc3)c2)cc1 | i | 1 | -3 | / | -12 | -7 | / | -6
COC(C(=O)Nc1ccnn1C1CCN(Cc2cccc(C)n2)CC1)c1ccccc1 (configuration not stated) | i | 1 | 1 | 6 | -11 | -6 | -8 | -5

Of the compounds above, these contain a thiophene ring, fused or not.
SMILES | Rce1 inh | MT1-MMP act inh | MT1-MMP act inh RFP | HIV Env fusion | Yeast UUG start | eIF4H FP inh | CSC inhib | PABP polyA inh | others
CCOCCCn1c(SCc2nc3sc(C(=O)O)c(C)c3c(=O)[nH]2)nnc1-c1ccc(Cl)cc1 | i | -2 | 3 | 18 | -6 | -6 | 1 | 7
Cc1nn(C(C)C(=O)O)c(=O)c2c1sc1ccccc12 (configuration not stated) | i | -4 | 3 | -78 | -6 | -2 | -1 | -7
CCOC(=S)NC(=O)c1sc2ccccc2c1Cl | i | 4 | 2 | -58 | -17 | -6 | -4 | 5
CC1CCc2sc(C(=O)OCC(=O)NCc3ccc(F)cc3)cc2C1 (configuration not stated) | i | -2 | -1 | -30 | / | -4 | 23 | -2
COc1ccc(-c2sc3cc4c(cc3c2C#CC2(O)CCCCC2)OCO4)cc1 | / | 11 | 0 | -32 | 4 | / | 112* | /
O=S(=O)(NCc1cccs1)c1cccc2cccnc12 | i | -1 | -1 | / | -6 | -3 | -19 | -4
C=C(C)CSc1nc2sc3c(c2c(=O)n1-c1ccccc1)CCN(C)C3 | i | -2 | 0 | 14 | / | 2 | -4 | 7
CC(C)(C)C1CCC(=NNC(=O)c2cc3c(s2)CCCC3)CC1 (configuration not stated) | i | 0 | -1 | 7 | -11 | -3 | -11 | 2

Only part of the results is shown; count on the stated rates, not on these rows.
